Screening data from PubChem BioAssay.
Rce1 inhib: yeast Rce1p protease inhibitors, primary screen, biochemical, fluorescence, cell-free homogeneous. hit rate 0.27% among 290,000. yeast membranes, quenched prenylated peptide cleavage fluorescence. AID 2563, 2010. calls only;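 active means fall in fluorescence gain of 50% or more versus controls, with final raw signal at or below 3038400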;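 further: plate controls were neutral control wells for no effect and wells lacking membranes for full effect; tested at 10 µM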
Target sequence (Q03530 whole entry, looked up): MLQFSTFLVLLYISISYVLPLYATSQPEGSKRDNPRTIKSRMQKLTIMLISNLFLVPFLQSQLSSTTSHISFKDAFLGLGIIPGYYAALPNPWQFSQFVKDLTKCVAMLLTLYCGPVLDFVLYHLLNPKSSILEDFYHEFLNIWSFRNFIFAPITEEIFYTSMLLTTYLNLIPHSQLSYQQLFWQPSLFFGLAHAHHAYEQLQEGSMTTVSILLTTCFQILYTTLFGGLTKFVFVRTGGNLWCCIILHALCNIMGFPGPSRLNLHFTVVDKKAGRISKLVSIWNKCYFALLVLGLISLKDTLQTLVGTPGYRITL
CSC inhib: cancer stem cell viability inhibitors, primary screen, luminescence. cancer stem cell-like cells viability. inhibition, % at 7.5 µM. hit rate 1.1% among 300,000. AID 2717, 2010;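 active means mean at 75% or more and at least half the replicates too; tested in HMLE shEcad cells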;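 further: 0% = median of negative and 100% = median of positive control wells; the first replicate is given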
eIF4H FP inh: human eIF4H binding inhibitors, primary screen, translation initiation inhibitor project, biochemical, uHTS, fluorescence polarization. Eukaryotic translation initiation factor 4H (Homo sapiens), Q15056. eIF4H fluorescence polarization binding assay. inhibition, % at 35 µM. hit rate 0.94% among 290,000. AID 2012, 2009;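 active means 50% or more with normal probe brightness, or confirmed in later tests; about a fifth of its hits are not listed in these tables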;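 further: calls also rest on retests at 20 µM and on dose response follow-up; 0% = protein and probe with vehicle and 100% = probe without protein; strong numbers were not always called active; many hits fall short of the cut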
Env fusion inh: inhibitors of HIV-1 Env-driven cell-cell fusion, primary screen, HeLa-JRFL effector, CEM21 target cells, luciferase. hit rate 1.1% among 360,000. inhibition, % at 12.3 µM;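 active means mean replicate inhibition score of at least 50 and every replicate individually at or above 50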;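 further: 0% = plate neutral controls and 100% = maraviroc near 300 nM; one replicate is shown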
Yeast UUG start: modulators of yeast start codon fidelity, primary screen, whole organism, S. cerevisiae, single point, plate reader; S. cerevisiae UUG-firefly luciferase reporter, luminescence/redox ratio; activity score, % at 18.7 µM; hit rate 0.13% among 350,000;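 active means replicate mean at a twofold rise or more, about +100% in these data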;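 further: firefly luciferase made from a UUG start codon reports start codon fidelity; reporter light over untreated wells divided by growth signal over untreated wells; some hits fall short of that in this replicate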
MT1-MMP act inh: blockers of MT1-MMP proenzyme processing, primary screen, HT1080 RFP-PRO-GFP cells, GFP/RFP fluorescence | GFP/RFP ratio change, % at 20 µM | GFP/RFP ratio fluorescence, overnight; percent of plate control window, DMSO zero | Matrix metalloproteinase-14 (Homo sapiens), P50281 | AID 651647, 2012 | hit rate 0.061% among 360,000;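 active means GFP/RFP ratio change of at least 30% with cell ATP level not reduced by more than half and red fluorescence within 50% of control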; further: strong numbers were not always called active
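Compound: 20 µM single dose, 1% DMSO / System: HT1080 RFP-PRO-GFP cells / Controls: DMSO and RFP-L50D-GFP cell wells / Read-out basis: GFP/RFP fluorescence ratio / Schedule: overnight compound exposure at 37 °C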
PABP FP inh: PABP poly(A) RNA binding inhibitors, primary screen, biochemical, fluorescence polarization, uHTS | Polyadenylate-binding protein 1 (Homo sapiens), P11940 | inhibition, % at 35 µM | hit rate 1% among 290,000 | AID 2014, 2009;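 active means 50% or more with normal probe brightness, or confirmed in later tests; about a fifth of its hits are not listed in these tables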;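 further: calls also rest on retests at 20 µM and on dose response follow-up; controls were probe without protein and protein plus probe with vehicle; some compounds called inactive have numbers as strong as hits; many hits fall short of the cut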
eIF4H FP inh retest: second read-out of eIF4H FP inh, no call of its own (marks repeat the call); inhibition, %; compound at 20 µM; confirmation average;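 mean of two retest wells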
PABP FP inh retest: also measured in PABP FP inh; calls as there; inhibition, %; compound at 20 µM; confirmation repeats;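 mean of two retest wells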
MT1-MMP act inh RFP: second read-out of MT1-MMP act inh, no call of its own (marks repeat the call); RFP signal change, %; measured here: RFP expression control read;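 0 = vehicle wells; hits needed this value within 50% of zero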
The depositor's hits bear a star; i = inactive; . = not tested or not shown.

SMILES | Rce1 inhib | CSC inhib | eIF4H FP inh | Env fusion inh | Yeast UUG start | MT1-MMP act inh | MT1-MMP act inh RFP | PABP FP inh | others
COc1ccc(C(=O)N2CCCC2(C#N)c2ccccc2)cc1[N+](=O)[O-] (stereo not drawn) | i | 4 | -7 | 27 | -8 | 0 | -12 | -1
Cn1cnnc1SCC(=O)Nc1nc(-c2ccccc2)cs1 | i | 6 | 6 | 8 | . | -3 | -2 | 2
COc1ccc(-c2ccc(C(=O)O)c(=O)[nH]2)cc1 | i | . | -4 | -12 | . | -4 | 0 | 2
Cc1cccn2cc(CCNS(=O)(=O)c3ccc([N+](=O)[O-])cc3)nc12 | i | -14 | -2 | 10 | -14 | 2 | 8 | -4
CC1CCCCN1C(=O)CNCc1ccc(F)cc1 (stereo not drawn) | i | -3 | -3 | 1 | -7 | 0 | 0 | 14
O=C(CSc1nc2ncccc2[nH]1)Nc1ccc2c(c1)OCCO2 | . | 8 | -6 | . | -21 | 6 | 2 | 17
Cc1nc(N2CCN(c3ccccc3F)CC2)[nH]c(=O)c1C | i | . | 10 | 2 | -3 | -1 | 2 | 0
Cc1ccccc1Cc1c(C)nc2c(C(=O)NCc3ccc4c(c3)OCO4)cnn2c1C | i | -1 | -3 | . | -18 | 0 | -8 | -3
CCOc1cc(/C=N/NC(=O)C(O)(c2ccccc2)c2ccccc2)ccc1OC(=O)c1ccco1 | i | -5 | . | 3 | -13 | 2 | 4 | .
CCC1NC(=O)c2cccnc2-n2c1nc1cc(OC)c(OC)cc1c2=O (stereo not drawn) | . | . | . | 18 | -7 | 3 | -2 | .
CCC1CCCCN1C(=O)c1cc(COc2ccc(-n3cncn3)cc2)on1 (stereo not drawn) | i | -13 | -12 | -2 | -20 | -4 | -24 | 2
CCOCCCNC(=O)CN1C(=O)COc2ccc(S(=O)(=O)N3CCC(C)CC3)cc21 | i | -4 | -12 | . | -15 | -5 | 2 | 8
CNC(=O)c1cccc(NC(=O)CCCNC(=O)c2ccc(Cl)cc2)c1 | . | -16 | 2 | -9 | -6 | 1 | 2 | 6
COc1ccc(N2CCN(C(=O)c3ccc(-c4ccccc4)cc3)CC2)cc1 | i | -5 | 7 | 10 | -13 | -6 | -3 | 8
O=C1NC(=O)C2C1C(c1ccc([N+](=O)[O-])cc1)=NN2Cc1ccccc1 (stereo not drawn) | i | 4 | -5 | -2 | -43 | -13 | -3 | -9
Nc1cc(C(=O)OCC(=O)NNC(=O)c2cccs2)ccc1Cl | i | -3 | . | -7 | -6 | 4 | 0 | .
CCOC(=O)Nc1c(O)ccc2oc(C)c(-c3ccccc3)c12 | i | -9 | -9 | . | 1 | 2 | -3 | -6
Cc1ccc(C)c(CN2C(=O)C3CCCN3c3ccc(C#N)cc32)c1 (stereo not drawn) | i | -10 | -11 | -6 | -17 | 7 | 7 | 4
CCOC(=O)N1CCN(C(=O)c2noc(C(C)C)c2[N+](=O)[O-])CC1 | i | -6 | 6 | -12 | 10 | -1 | -1 | 3
OC(COC(c1ccccc1)c1ccccc1)CN1CCc2ccccc2C1 (stereo not drawn) | i | 13 | -4 | 10 | -9 | -2 | -5 | 12
C=CCNc1nc(NCc2ccccc2)nc(OCC)n1 | i | -13 | 4 | -1 | 2 | 3 | -1 | -1
Cc1ccccc1Sc1ccc(N)cn1 | i | 2 | . | -2 | -18 | -20 | 2 | .
COc1ccc(C(=O)/C=C/Nc2ccc([N+](=O)[O-])cc2C)c(OC)c1 | i | -3 | 38 | . | -22 | -10 | 5 | 4
Cc1ccc(-c2noc(C3CCN(C(=O)Nc4ccc(C#N)cc4)CC3)n2)o1 | i | -2 | 8 | 40 | -15 | 2 | -11 | 5

An excerpt from above in order of length of the SMILES, rising:
SMILES | Rce1 inhib | CSC inhib | eIF4H FP inh | Env fusion inh | Yeast UUG start | MT1-MMP act inh | MT1-MMP act inh RFP | PABP FP inh | others
Cc1ccccc1Sc1ccc(N)cn1 | i | 2 | . | -2 | -18 | -20 | 2 | .
Cc1ccc(C)c(CN2C(=O)C3CCCN3c3ccc(C#N)cc32)c1 (stereo not drawn) | i | -10 | -11 | -6 | -17 | 7 | 7 | 4
CCOC(=O)N1CCN(C(=O)c2noc(C(C)C)c2[N+](=O)[O-])CC1 | i | -6 | 6 | -12 | 10 | -1 | -1 | 3

The listing continues:
SMILES | Rce1 inhib | CSC inhib | eIF4H FP inh | Env fusion inh | Yeast UUG start | MT1-MMP act inh | MT1-MMP act inh RFP | PABP FP inh | others
Cc1c(NC(=O)c2ccc(N(C)S(C)(=O)=O)cc2)c(=O)n(-c2ccccc2)n1C | i | -5 | 4 | 6 | -4 | -3 | 3 | -10
COc1ccc(C(=O)NN(c2ccccc2)c2ccccc2)cc1 | i | -1 | -8 | 7 | -11 | -3 | 7 | -5
COC(=O)c1nc(N)sc1C(C)C | i | -1 | 0 | 1 | . | 2 | -1 | 0
CCn1c(CCNC(=O)c2ccc(F)cc2)nc2ccccc21 | i | -10 | 1 | -10 | -21 | -2 | 4 | 7
O=C1c2ccccc2C(=O)N1CCOc1cccc(Br)c1 | i | -3 | -11 | . | -10 | 1 | 3 | 3
C=CCn1c(SCc2cc(=O)n3cc(C)ccc3n2)nnc1-c1ccc(F)cc1 | i | . | -6 | 10 | . | 3 | 0 | -1
O=C(NCCCN1CCOCC1)c1c(F)c(F)c(F)c(F)c1F | i | 4 | -13 | -3 | -8 | -1 | 2 | 31
O=C(CSCc1ccccc1)Nc1ccc(F)c(F)c1 | i | 9 | -13 | -38 | -22 | 2 | 2 | -9
COc1ccc(C2(C(=O)NC3CCCCC3)CCOCC2)cc1OC | i | 0 | -1 | -45 | 5 | 14 | 6 | -1
Cc1ccccc1NC(=O)CSC(=O)c1ccccc1 | . | -3 | . | . | -22 | -3 | -3 | .
COc1cc(/C=N/NC(=O)C(Cc2c[nH]c3ccccc23)NC(=O)OCC(C)C)cc([N+](=O)[O-])c1O (stereo not drawn) | i | 21 | 1 | 11 | . | 9 | 2 | -9
CSc1nnc(-c2cccc(C)c2)n1N | i | -12 | 8 | . | . | 4 | 2 | -13
COc1ccc(C2=CC(=O)C[C@H](c3ccc4c(c3)OCO4)C2)cn1 | . | 23 | . | -17 | -8 | 10 | -3 | .
Cc1[nH]n(C2=NCCS2)c(=O)c1N=Nc1cccc(C(F)(F)F)c1 | i | 50 | 9 | 15 | . | -5 | -5 | -4
O=C(O)c1ccccc1NC(=O)c1ccccc1-c1ccccc1C(=O)O | i | -13 | -3 | -13 | 0 | 3 | 1 | -5
O=C(COC(=O)c1ccc(NS(=O)(=O)c2cccs2)cc1O)Nc1nc2ccccc2s1 | i | 17 | -6 | -18 | . | -6 | -8 | 3
CSc1nnc(C(C)c2ncc(C(F)(F)F)cc2Cl)n1C (stereo not drawn) | i | -7 | -3 | -9 | . | 2 | 7 | -3
COc1ccc(CCNc2nc(-c3ccc(F)cc3)c(CC(=O)O)s2)cc1OC | i | 5 | 80 | 10 | -9 | -10 | 1 | 35* | eIF4H FP inh retest=16;PABP FP inh retest=70*
CCC(Sc1nc(C)cc(=O)[nH]1)C(=O)Nc1nc2c(s1)CCCC2 (stereo not drawn) | i | -9 | -7 | -7 | -4 | -2 | 1 | 1
COc1cc(OC)cc(C(=O)N[C@H](C(=O)NCc2ccc(F)cc2)C(C)C)c1 | i | 4 | -3 | 7 | -16 | -9 | -7 | 20
Cc1ccc(-c2nnc(SCC(=O)N/N=C/c3cccs3)n2-c2ccc(C)cc2)cc1 | i | 6 | 7 | -2 | . | 1 | -3 | 0
CCOC(=O)C1(Cc2ccc(OC)cc2)CCN(S(C)(=O)=O)CC1 | i | 0 | -10 | -10 | . | 4 | 6 | 3
COc1ccc(-c2cccc3c2C2CC3CCN2C(=O)OCc2ccccc2)cc1 (stereo not drawn) | . | . | . | 13 | 0 | -2 | -8 | .
CC(=O)Nc1sc2c(c1C#N)CCCC2 | i | -10 | -3 | 8 | -2 | 0 | 2 | 1
Cc1cc(OC(=O)c2ccc(F)cc2)c([N+](=O)[O-])c(=O)[nH]1 | i | -2 | 0 | 3 | -7 | 0 | 0 | 8
CN1C=CC=C/C1=C1\SC(=S)N(Cc2ccccc2)C1=O | i | 5 | -2 | -3 | . | 6 | 3 | -2
CCOc1ccc(NC(=O)CN2C(=O)CSc3ccc(S(=O)(=O)N4CCCC4)cc32)cc1 | i | -4 | . | -2 | 0 | -3 | -2 | .
O=C(NCCCc1ccccc1)c1cccc([N+](=O)[O-])c1 | i | -9 | -10 | 5 | . | -1 | 3 | -6
CCCCOc1ccc2c(c1)C(=O)c1cc(O)ccc1-2 | i | 46 | 6 | -90 | . | 4 | -9 | 8
COc1cccc(C2/C(=C(\O)c3ccc4c(c3)OCCO4)C(=O)C(=O)N2CCCN2CCOCC2)c1OC (stereo not drawn) | i | 0 | . | . | -8 | 0 | 8 | .
CCN(CC)C(=O)C(=O)N/N=C/c1cccs1 | i | -8 | -2 | . | -11 | -6 | -1 | 0
CC(C)(Sc1cc(C(C)(C)C)c(O)c(C(C)(C)C)c1)Sc1cc(C(C)(C)C)c(O)c(C(C)(C)C)c1 | i | -1 | -4 | 6 | 2 | -8 | -5 | 0
O=C1CC(Nc2ccccc2)C(=O)N1CCc1ccccc1 (stereo not drawn) | i | 2 | 2 | -104 | -3 | -6 | 3 | -4
O=C(CCNC(=O)Cn1ccc2ccccc2c1=O)NCC1CCCC1c1ccccc1 (stereo not drawn) | i | 7 | -1 | -14 | . | 0 | -7 | 0
Cc1cc(C)c2oc(C(=O)Nc3ccc(S(=O)(=O)N4CCC(C)CC4)cc3)cc(=O)c2c1 | i | 1 | 88 | 26 | . | 4 | -3 | 2 | eIF4H FP inh retest=-8;PABP FP inh retest=8
C(=N\n1cnnc1)/c1ccccc1OCCOc1ccccc1 | i | 8 | 1 | . | 6 | 1 | 3 | 4
Cc1onc(-c2ccccc2Cl)c1C(=O)OCC(=O)N1CCN(c2ccccc2)CC1 | i | . | . | i | -12 | 0 | -4 | .
COc1cc(C(=O)N/N=C/c2coc3ccc(Cl)cc3c2=O)ccc1O | i | 8 | -3 | 16 | -5 | -8 | -4 | -1
Cc1cccnc1NC(=O)c1cccc(S(=O)(=O)N2CCCC2)c1 | i | 1 | . | . | -17 | 1 | 2 | .
O=C(COc1ccc(Cl)cc1)NCCSCc1ccccc1Cl | i | 10 | 8 | 1 | -2 | 1 | 3 | 8
COc1cc(OC)cc(C(=O)OCc2ccc([N+](=O)[O-])cc2)c1 | i | 4 | 5 | -4 | . | 1 | -2 | -4
CC(C)c1nnc(NC(=O)c2cc3cc(Br)ccc3oc2=O)s1 | i | -3 | -5 | -1 | -17 | -8 | -3 | -1
Cc1ccc(S(=O)(=O)NCCC(=O)OCC(=O)NC(=O)c2cccn2C)cc1 | i | 5 | 0 | 5 | . | -1 | 5 | 17

Among those listed so far, 2 have bromine:
SMILES | Rce1 inhib | CSC inhib | eIF4H FP inh | Env fusion inh | Yeast UUG start | MT1-MMP act inh | MT1-MMP act inh RFP | PABP FP inh | others
O=C1c2ccccc2C(=O)N1CCOc1cccc(Br)c1 | i | -3 | -11 | . | -10 | 1 | 3 | 3
CC(C)c1nnc(NC(=O)c2cc3cc(Br)ccc3oc2=O)s1 | i | -3 | -5 | -1 | -17 | -8 | -3 | -1

The list is partial; count on the stated rates, not on these rows.
